Assay outcomes as filed in PubChem BioAssay.
PINK1 modulator: modulators of PINK1 expression | 410,000 tested, 0.2% active | AID 624263 | PINK1 immunofluorescence, high-content cytometry, 24 h | Potency, µM (series often up to 76.6 µM), without a hit: at the top dose activation (PINK1 increase), most hits filed as activators; active = well fitted activation curve with a large enough effect; inconclusive = small, poorly fitted or top-dose-only effect; inactive = flat fitted curve, though single readings scatter; cell line not stated here;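 further: potency means the concentration at half of the fitted maximal effect; % of control where 0% means no effect; nearly all actives have a fitted effect of over 65% in size; a mitochondrial uncoupler was the plate control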
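Decision-based qHTS: stable cells, 24 h exposure to five compound concentrations, CCCP as control. Fixed cells stained for PINK1 plus nuclear, mitochondrial and cell markers, cytometer read.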
TRPML1 ag: human mucolipin-1 channel agonism; 410,000 tested, 0.12% active; TRPML1-expressing cells, Ca2+ dye fluorescence, FDSS; host cell line not named in the record; reference of the full effect not given here; activation, % (concentration not given with the values); in the data active = activation above about 50%; inconclusive = about 30% to 50%; inactive = below about 30%; further: 0% is about no effect; the text of the record puts the active cut at 80%
Target sequence (Q9GZU1 whole entry, looked up): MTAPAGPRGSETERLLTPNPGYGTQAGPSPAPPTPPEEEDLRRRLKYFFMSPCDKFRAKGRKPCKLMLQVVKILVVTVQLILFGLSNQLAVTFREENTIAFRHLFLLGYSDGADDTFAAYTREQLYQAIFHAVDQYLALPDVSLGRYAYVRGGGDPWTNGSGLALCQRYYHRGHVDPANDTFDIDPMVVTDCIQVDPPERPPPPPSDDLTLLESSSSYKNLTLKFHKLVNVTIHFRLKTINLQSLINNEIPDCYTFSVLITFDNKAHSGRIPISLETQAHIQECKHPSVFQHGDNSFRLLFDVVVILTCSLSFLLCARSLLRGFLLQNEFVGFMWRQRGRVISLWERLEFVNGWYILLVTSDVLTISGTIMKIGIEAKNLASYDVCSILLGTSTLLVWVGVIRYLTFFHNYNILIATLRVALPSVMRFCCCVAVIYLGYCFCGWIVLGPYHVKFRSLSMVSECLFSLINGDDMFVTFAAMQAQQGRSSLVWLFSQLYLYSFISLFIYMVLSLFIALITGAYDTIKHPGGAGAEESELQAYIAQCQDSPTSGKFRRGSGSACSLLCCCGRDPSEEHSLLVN
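Calcium fluorescence on an FDSS kinetic reader gave the read-out. Tet-induced TRPML1-DL cells were plated overnight, dye-loaded (Ca8 with quencher, 45-90 min, room temperature, dark), then read 110 s after compound addition, and again 110 s after 4uM final 54-4 (EC80).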
* = called active by the depositor; ? = inconclusive.

Each structure is followed by: PINK1 modulator, TRPML1 ag
COC(=O)c1ccc(CSc2nc3c([nH]c4ccccc43)c(=O)n2-c2cc(C)cc(C)c2)o1
  0.1%, 1.1
CCc1ccccc1NC(=O)c1nnn(-c2ccc(F)cc2)c1C
  0.4%, 0.6
O=C(NCCc1ccc(Cl)cc1)c1ccc(CS(=O)(=O)Cc2ccc(Cl)cc2)o1
  9.6%, 0.0
CCOC(=O)c1c(S(=O)(=O)NCC(=O)N(C)Cc2ccccc2)c(C)n(C)c1C
  0.7%, 1.5
Cc1cc2oc3c(c(=O)c2cc1C)C(c1ccc(C(C)C)cc1)N(c1nc(C)c(C)s1)C3=O (stereo not drawn)
  -1.0%, 0.9
COC(=O)CN1C(=O)C(C)(C)c2cc(S(=O)(=O)NCc3ccc(Cl)cc3)ccc21
  1.3%, -0.8
CCOC(=O)c1cccc(NC(=O)CCCn2c(C)c3cnn(-c4ccccc4)c(=O)c3c2C)c1
  -0.7%, -0.6
Cc1nn(C(C)C(=O)Nc2ccccc2C(F)(F)F)c(=O)c2c1sc1ccccc12 (stereo not drawn)
  0.3%, -0.4
CCCS(=O)(=O)Nc1cc(-c2cn3cccc(C)c3n2)ccc1C
  0.5%, 0.2
Cc1ccc(NC(=O)c2oc3ccccc3c2NC(=O)C2CCCCC2)cc1
  8.2%, 0.1
COc1ccc(NC(=O)c2oc3ccccc3c2NC(=O)c2cccc(F)c2)c(OC)c1
  0.9%, -0.8
Cc1nc(N=Nc2cc(S(=O)(=O)O)c3cc([N+](=O)[O-])cc(S(=O)(=O)O)c3c2)c(COP(=O)(O)O)c(C=O)c1O
  -0.6%, 0.2
CCn1nnnc1Sc1nc(C)nc2scc(-c3ccccc3)c12
  0.3%, -1.0
CCCCNC(=O)CN1CCN(c2ncc(NC(=O)c3ccc(Cl)cc3)cc2C(=O)O)CC1
  2.5%, 2.9
CCOc1ccc(CC(=O)NCCc2sc3nc(-c4ccc(OC)cc4)nn3c2C)cc1
  1.2%, 0.4
CCc1nnc(NC(=O)c2nc(SCc3cccc(C)c3)ncc2Cl)s1
  0.6%, 0.4
CCCN(C(=O)c1cc2c(=O)oc3ccccc3c2s1)c1ccccc1C
  0.5%, 0.0
CCCCCC(=O)Nc1ccc(NC(=O)c2cc3ccccc3o2)c(OC)c1
  13%, -0.3
Cc1ccc(Cl)cc1NC(=O)C(Cc1ccccc1)NS(=O)(=O)c1cccc2nsnc12 (stereo not drawn)
  -0.2%, 0.1
Cc1ccc(N(Cc2cccs2)C(=O)COc2ccccc2[N+](=O)[O-])cc1
  0.2%, 5.3

Look-ups from the entries so far.
Entry for CCCN(C(=O)c1cc2c(=O)oc3ccccc3c2s1)c1ccccc1C under TRPML1 ag: 0.0
Entry for Cc1ccc(N(Cc2cccs2)C(=O)COc2ccccc2[N+](=O)[O-])cc1 under TRPML1 ag: 5.3

(list continues)
Each structure is followed by: PINK1 modulator, TRPML1 ag
COc1cc2nc(NCc3ccc(C)cc3)n3nc(-c4ccccc4)nc3c2cc1OC
  2.2%, -0.8
O=C(NCC(c1cccnc1)N1CCN(Cc2ccccc2)CC1)C(=O)Nc1ccc(F)cc1 (stereo not drawn)
  2.3%, 1.3
CCn1c(=O)cc(SCC(=O)NCc2ccccc2OC)c2ccccc21
  7.4%, 0.5
Cc1ccc(NC(=O)CCCn2c(=O)c3cccn3c3cccnc32)c(Cl)c1
  1.3%, -0.9
CCOc1ccc(-c2ccc(CO)o2)cc1N
  -0.7%, -0.4
COc1cccc(N2CCN(C(=O)c3ccc4c(=O)n(CCc5ccccc5)c(=O)[nH]c4c3)CC2)c1
  2.4%, 0.4
Cc1cccc(Nc2nc3c(S(=O)(=O)c4ccc(Br)cc4)nnn3c3ccsc23)c1C
  1.7%, 0.8
COc1ccc(-n2ccn3c(CC(C)(C)CC(=O)O)nnc3c2=O)cc1
  -0.4%, 0.7
Cc1ccc(C)c(NC(=O)CSc2nc(-c3ccccc3)cc(=O)[nH]2)c1
  0.2%, 0.5
Cc1ccc(CNc2ccc(-c3nc(-c4ccco4)no3)cc2[N+](=O)[O-])cc1
  0.1%, -0.7
Cc1ccc(CN2C(=O)N(c3ccc(F)cc3)C(=O)C2CC(=O)Nc2ccc(Cl)cc2)cc1 (stereo not drawn)
  4.5%, 0.5
Cc1ccc(CNC(=O)CCS(=O)(=O)c2cc3c4c(c2)CCN4C(=O)CC3)cc1
  -1.1%, -0.9
CCOC(=O)c1cccc(NC(=O)c2ccc3nc(CCc4ccccc4)oc3c2)c1
  -0.7%, 1.8
CCCCN(CC)CCCNC(=O)c1ccc2c(c1)NC(=O)CN2C
  0.8%, -0.1
O=C(CSc1nc(-c2ccccc2)nc2c1CCCC2)c1ccc(Cl)cc1
  24%, 0.3
Cc1cccc(CCNC(=O)c2cc3c(=O)[nH]c4ccc(C)cc4c3s2)c1
  1.2%, 0.1
c1ccc2c(c1)ccn2-n1ccc2ccccc21
  1.6%, 0.9
NC1C(N)C(N)C1N (stereo not drawn)
  1.9%, -0.4
O=C(Nc1sc2c(c1C(=O)NCC1CCCO1)CCCC2)c1cc(=O)c2ccccc2o1 (stereo not drawn)
  14%, 3.5
Cc1nc2ccn(Cc3ccco3)c(=O)c2cc1C(=O)NCc1ccc(Cl)cc1
  2.2%, 1.8
CCc1ccc(NC(=O)CSc2nc3ccccc3nc2Cc2ccc(C)cc2)cc1
  1.2%, -0.4
Cc1c(C)n(Cc2ccccc2)c2ccc(C(=O)N3CCN(c4ccc(F)cc4)CC3)cc12
  1.0%, 0.6
COc1ccc(C(=O)Nc2ccc3nc(N4CCC(C)CC4)cc(C)c3c2)cc1
  2.0%, -0.6
COc1ccccc1CNCc1ccc(C(=O)O)s1
  0.9%, -0.1
CCCCc1cc(=O)oc2cc(C)c3c(C)coc3c12
  -0.8%, 1.4
c1ccc(N2CCN(c3ncnc4c3nc3n4CCCC3)CC2)cc1
  26%, 1.1
COC(=O)c1c(NC(=O)c2ccc(OC)cc2OC)sc2c1CCCCC2
  2.4%, -0.4
COc1ccc(-n2ccnc2SCC(=O)Nc2nnc(C)s2)cc1
  2.9%, 1.2
CC(CCc1ccccc1)NC(=O)CSc1n[nH]c(-c2ccccc2Cl)n1 (stereo not drawn)
  4.5%, 1.1
CCOc1ccc(NC(=O)C2CCCN(S(=O)(=O)c3c(C)noc3/C=C/N(C)C)C2)cc1 (stereo not drawn)
  0.6%, 1.4
Cc1ccc2c(c1)N(C(=O)CCC(=O)NCc1cccs1)CCO2
  0.2%, 0.8
COC(=O)c1c(NC(=O)/C(C#N)=C/c2ccc(OC)cc2)sc2c1C(C(=O)OC)CC2 (stereo not drawn)
  5.0%, -0.1
CN(C)c1ccc(/C=C/c2ccc3cc(N)ccc3n2)cc1
  1.6%, ?
Cn1nc(-c2ccccc2F)c2cc(C(=O)NCc3cccc(Cl)c3)sc21
  0.7%, -0.3
Cc1cccc(N2CCN(C(=O)c3cnn(-c4cccc(Cl)c4C)c3C3CCNCC3)CC2)c1C
  -0.2%, -0.2
CCc1ccc(CNC(=O)Cn2nc(-c3ccc(C)cc3)ccc2=O)cc1
  -0.8%, 1.2
O=C(Cc1ccccc1)NC1CC(=O)N(c2ccccc2)C1 (stereo not drawn)
  1.0%, 0.3
CCOc1ccccc1NC(=O)C(=O)NCCc1sc2nc(-c3ccc(OC)cc3)nn2c1C
  0.5%, 3.4
COCCCNC(=O)CSc1nc2c(sc3ccccc32)c(=O)n1CCc1ccc(OC)c(OC)c1
  2.3%, -0.7
Cc1c(C)n(Cc2ccc(F)cc2)c2ccc(C(=O)Nc3ccc(Cl)cc3)cc12
  5.5%, 0.4
CC(C)c1ccc(S(=O)(=O)c2cnc(SCC(=O)Nc3cccc(C(F)(F)F)c3)nc2N)cc1
  ?, -0.1
CC1CCc2c(sc3nnn(Cc4ccccc4Cl)c(=O)c23)C1 (stereo not drawn)
  0.6%, -0.8
CCCN(C(=O)c1c(C)oc2ncnc(N3CCOCC3)c12)c1ccc(Cl)c(Cl)c1
  ?, 0.5
O=C(COc1ccc(Cl)cc1)NCCc1csc(-c2ccc(C(F)(F)F)cc2)n1
  5.2%, 3.3
O=C(COc1ccccc1)Nc1ccc(OCc2cc(=O)n3ccsc3n2)cc1
  0.8%, -0.6
Cc1ccc(S(=O)(=O)c2c(Nc3cccc(Cl)c3)sc(C(=O)c3ccc4c(c3)OCO4)c2N)cc1
  5.5%, 9.9
Cc1ccc(NC(=O)CSc2nc(-c3cccs3)cc(C(F)(F)F)n2)cc1C
  12%, -0.5
O=C(NCCc1ccccc1)C(=O)NCC(c1cccnc1)N1CCN(c2ccc(F)cc2)CC1 (stereo not drawn)
  0.8%, 2.2
CCc1ccc(-n2c(SCc3cccc(F)c3)nc3[nH]ncc3c2=O)cc1
  -0.5%, 4.4
Cc1ccc(-n2c(C)cc(/C=C(\C#N)C(=O)Nc3ccc(C)c(C)c3)c2C)cc1
  0.1%, -0.7
CCOc1cc(C2c3c(-c4ccc(Br)cc4)n[nH]c3C(=O)N2c2ccc(Cl)cc2)ccc1O (stereo not drawn)
  ?, 0.1
COc1ccc(C2CC(=O)c3cnc4c(-c5ccccc5)c(C)nn4c3C2)cc1OC (stereo not drawn)
  0.9%, 0.2
CCCCNC(=O)C1CCC(Cn2c(=O)c3sccc3n(Cc3ccccc3)c2=O)CC1 (stereo not drawn)
  -0.9%, 0.8
Cc1cccc(C)c1-n1ncc(C(=O)N2CCN(c3ccccn3)CC2)c1C1CCN(C(=O)OC(C)(C)C)CC1
  0.4%, 3.8
O=C(Nc1cccc(C(F)(F)F)c1)c1cc(S(=O)(=O)N2CCCC2)c[nH]1
  5.2%, 0.7
CCc1ccc(CN(Cc2ccco2)C(=O)COc2ccc(Cl)cc2C)cc1
  1.9%, 1.4
Cc1ccc(NC(=O)Cn2c(=O)n(CCc3ccccc3)c(=O)c3c4c(sc32)CCCC4)cc1C
  1.5%, -0.1
O=C(CCC1N=C2c3ccccc3N=C(SCc3ccccc3F)N2C1=O)NCc1ccccc1 (stereo not drawn)
  0.0%, -1.1
Cc1c(-c2ccc(Cl)cc2)c(=O)oc2ccc(OC(=O)N3CCOCC3)cc12
  25%, 1.4
Cc1ccc([N+](=O)[O-])cc1S(=O)(=O)N1CCn2cccc2C1c1ccc(F)c(F)c1 (stereo not drawn)
  -1.1%, 6.8

Some of the entries so far, as a markdown table.
| SMILES | PINK1 modulator | TRPML1 ag |
| --- | --- | --- |
| O=C(NCCc1ccccc1)C(=O)NCC(c1cccnc1)N1CCN(c2ccc(F)cc2)CC1 (stereo not drawn) | 0.8% | 2.2 |
| CCc1ccc(-n2c(SCc3cccc(F)c3)nc3[nH]ncc3c2=O)cc1 | -0.5% | 4.4 |
| Cc1ccc(-n2c(C)cc(/C=C(\C#N)C(=O)Nc3ccc(C)c(C)c3)c2C)cc1 | 0.1% | -0.7 |
| CCOc1cc(C2c3c(-c4ccc(Br)cc4)n[nH]c3C(=O)N2c2ccc(Cl)cc2)ccc1O (stereo not drawn) | ? | 0.1 |
| COc1ccc(C2CC(=O)c3cnc4c(-c5ccccc5)c(C)nn4c3C2)cc1OC (stereo not drawn) | 0.9% | 0.2 |
| CCCCNC(=O)C1CCC(Cn2c(=O)c3sccc3n(Cc3ccccc3)c2=O)CC1 (stereo not drawn) | -0.9% | 0.8 |
| Cc1cccc(C)c1-n1ncc(C(=O)N2CCN(c3ccccn3)CC2)c1C1CCN(C(=O)OC(C)(C)C)CC1 | 0.4% | 3.8 |

Other records follow:
Each structure is followed by: PINK1 modulator, TRPML1 ag
Cc1ccc(OCC(=O)Nc2ccc(OCc3cc(=O)n4ccsc4n3)cc2)cc1
  3.5%, -0.8
CN(CCC#N)c1ccc(/C=C/c2ccnc3ccccc23)cc1
  ?, 4.1
COc1cc(Cl)c(NS(=O)(=O)c2ccc3c(c2)CC(C)N3C(=O)C2CCC2)c(OC)c1 (stereo not drawn)
  0.0%, -0.7
CCCC12CN3CC(CCC)(CN(C1)C3c1ccc(OC(C)C)cc1)C2=O (stereo not drawn)
  1.7%, -1.2
COc1ccc2c(c1)CC(C(=O)NCCCN1CCN(c3ccc(F)cc3)CC1)CO2 (stereo not drawn)
  -0.8%, -0.3
CCSc1nnc2c(n1)OC(c1ccc(C)s1)Nc1ccccc1-2 (stereo not drawn)
  0.0%, -0.6
COc1ccc(CC(=O)Nc2sc3c(c2C(=O)Nc2c(C)cccc2C)CCCCC3)cc1
  -0.9%, 1.9
CC(C)(C)C(=O)Nc1ccc(Cl)c(-c2nc3ccccc3[nH]2)c1
  3.6%, 1.8
CC(C)CC(=O)OCc1cc(=O)n2nc(C3CCCCC3)sc2n1
  0.9%, -0.5
Cc1ccc(CCNC(=O)CCCc2nnc3n(C)c(=O)c4sccc4n23)cc1
  5.1%, 0.7
COc1ccc(CCNC(=O)c2ccc(-n3c(C)cc4c3CCCC4)cc2)cc1OC
  -0.7%, 1.1
Fc1ccc(-n2ncc3c(Nc4ccc5c(c4)OCCO5)ncnc32)cc1
  3.0%, -1.1
CN1CC(=O)N(CC(=O)Nc2ccc(OC(F)(F)F)cc2)c2ccccc2C1=O
  0.7%, 1.9
COc1cccc(COC(=O)c2ccc(-c3nnn(Cc4ccccc4)n3)cc2)c1
  -1.3%, 2.2
COc1cc(CN(C(=O)c2ccccc2Br)c2ccccn2)cc(OC)c1OC
  0.3%, -0.8
Cc1cc(C)c2nc(NC(=O)c3ccc(S(=O)(=O)N4CCc5ccccc54)cc3)sc2c1
  3.2%, -0.4
Cc1cccc(NC(=O)CN2C(=O)C3(SCC(=O)N3c3ccccc3)c3ccccc32)c1 (stereo not drawn)
  -4.8%, 3.1

Not all compounds are listed (hit frequency here may not be typical).
